Menin-MLL FL inh: displaces fluorescein MLL peptide from human menin | Fluorescence polarization, fluorescein-MLL peptide displacement from menin | FP activity change, % at 61.4 µM | 290,000 tested, under 10 active | AID 1766; inconclusive = falling polarisation curve, or a change in total fluorescence; inactive = total fluorescence flat and polarisation flat or rising; no compound was filed as active; the % refers to the polarisation; negative = inhibition;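 note: % of control where 0% means no effect; inhibitors lower the polarisation; unlabelled MLL peptide was the positive control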
D2 ag: agonists of human D2 dopamine receptor (beta-arrestin); P14416; DiscoveRx PathHunter D2 beta-arrestin, luminescence, 90 min; 100% = 57 uM dopamine signal; activation, % (test concentration not listed); actives 0.084% (n = 360,000); in the data active = activation above about 40%; inconclusive = about 15% to 40%; inactive = below about 15%; note: compound concentration not given in the record; the text of the record calls up to 30% inactive
Target sequence (P14416 whole entry, looked up): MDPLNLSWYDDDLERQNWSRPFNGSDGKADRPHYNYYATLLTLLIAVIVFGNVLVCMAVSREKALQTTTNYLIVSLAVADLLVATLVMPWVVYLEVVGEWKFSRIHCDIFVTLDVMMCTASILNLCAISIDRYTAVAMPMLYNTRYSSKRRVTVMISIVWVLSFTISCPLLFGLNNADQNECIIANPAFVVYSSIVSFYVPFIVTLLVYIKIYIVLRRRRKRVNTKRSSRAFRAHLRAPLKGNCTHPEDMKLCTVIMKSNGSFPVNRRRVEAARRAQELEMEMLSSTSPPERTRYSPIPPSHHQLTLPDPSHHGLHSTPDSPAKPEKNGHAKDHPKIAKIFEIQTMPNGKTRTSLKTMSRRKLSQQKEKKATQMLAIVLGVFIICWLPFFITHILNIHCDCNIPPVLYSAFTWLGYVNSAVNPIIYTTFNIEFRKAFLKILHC
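DiscoveRx PathHunter D2 beta-arrestin cells (2,100/well) attached overnight, then compound-stimulated 90 min at 37 C in HBSS/10 mM HEPES/0.1% Tween-20 buffer; beta-galactosidase complementation read by luminescence after 1 h at ambient temperature. Dopamine 57 uM final (EC100) as control.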
ClpP mod: qHTS Assay for Activators of ClpP; ATP-dependent Clp protease proteolytic subunit (Bacillus subtilis (strain 168)), P80244; purified B. subtilis ClpP, FRET peptide cleavage, 20 min; Potency, µM (top dose mostly 57.5 µM), inactives show at the highest dose activity change, negative = active; actives 1.9% (n = 340,000); active = well fitted falling curve with a large enough effect; inconclusive = small, poorly fitted or top-dose-only effect; inactive = no such curve, though single readings can be large or run the other way; note: potency is the fitted concentration of half-maximal effect; the source files actives as falling curves though it sought activators and does not explain the sign; nearly all actives have a fitted effect of over 65% in size; many hits overshoot -100%
Target sequence (P80244 whole entry, looked up): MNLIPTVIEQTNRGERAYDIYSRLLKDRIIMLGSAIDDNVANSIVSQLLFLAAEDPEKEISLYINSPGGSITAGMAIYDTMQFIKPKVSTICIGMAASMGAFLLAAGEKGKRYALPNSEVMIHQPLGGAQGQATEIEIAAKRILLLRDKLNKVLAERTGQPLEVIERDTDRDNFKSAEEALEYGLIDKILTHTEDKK
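Buffer: 100 mM Tris/HCl pH8, 100 mM KCl, 0.05% low protease BSA, 2.5% glycerol, 0.01% Tween-20. ClpP 10 microg/mL final; 20 min RT; delta FRET normalized to ADEP and DMSO controls.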
gsp ag: activates gsp, the McCune-Albright syndrome mutation. Potency, µM (highest dose often 76.9 µM), without a hit: top-dose activation (cAMP increase), most hits filed as activators. gsp mutant cells, cAMP HTRF, 30 min; control for the full effect not named in the record. actives 0.13% (n = 340,000). AID 624287; active = well fitted activation curve with a large enough effect; inconclusive = small, poorly fitted or top-dose-only effect, or another doubt; inactive = no such curve, though single readings can be large or run the other way; cell line not stated here;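 note: phosphodiesterase inhibitor Ro 20-1724 added with compounds to block cAMP breakdown; potency is the fitted concentration of half-maximal effect; nearly all actives have a fitted effect of over 60% in size; about a fifth of the inactives were tested at one dose only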
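Cells in DMEM/10% FBS with G418 were pretreated with compounds in DMSO plus […] (300 uM stock) for 30 min at 37C. cAMP was measured by HTRF (cAMP-d2 plus anti-cAMP antibody-K) after 30 min at room temperature.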
Sfp inh: Sfp phosphopantetheinyl transferase inhibition; AID 1490; Biochemical Sfp PPTase activity, qHTS; actives 3.5% (n = 310,000); Potency, µM, inactives show max response, negative = inhibition, actives largely listed as inhibitors; active = well fitted inhibition curve with a large enough effect; inconclusive = small, poorly fitted or top-dose-only effect, or another doubt; inactive = no such curve, though single readings can be large or run the other way;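 note: the enzyme is Sfp with the accession as filed and its product quenches rhodamine fluorescence; potency is the fitted concentration of half-maximal effect; 0% = enzyme reaction without inhibitor and -100% = no enzyme wells; top concentration of the series not given in the record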
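Reaction rates are the 30-min fluorescence difference (ex 525, em 598 nm) in wells containing 15 nM Sfp, 5 uM rhodamine-CoA and 12.5 uM BHQ-2-YbbR at pH 7.6 with 10 mM MgCl2.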
PINK1 modulator: changes PINK1 expression; PINK1 immunofluorescence, high-content cytometry, 24 h; Potency, µM (highest dose often 76.6 µM), for the others: at the highest dose activation (PINK1 increase), actives largely listed as activators; actives 0.2% (n = 410,000); active = well fitted activation curve with a large enough effect; inconclusive = small, poorly fitted or top-dose-only effect; inactive = flat fitted curve, though single readings scatter; cell line not stated here;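 note: potency is the fitted concentration of half-maximal effect; % of control where 0% means no effect; nearly all actives have a fitted effect of over 65% in size; a mitochondrial uncoupler was the plate control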
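PINK1 protein, normally rapidly degraded, was detected by immunofluorescence after 24 hour compound treatment of a stable cell line. Titration data (5 concentrations) came from laser-scanning cytometry, with CCCP-treated wells as controls.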
gsp antagonist: antagonizes gsp, the McCune-Albright syndrome mutation; Potency, µM (titrated, usually from 76.9 µM), for inactives: at the highest dose activity change, negative = inhibition, most hits filed as inhibitors; actives 0.4% (n = 340,000); gsp-mutant cells, cAMP HTRF, 30 min; control for the full effect not named in the record; active = falling curve of any shape with a large fitted effect; inconclusive = falling curve, mostly with a smaller effect; inactive = flat or rising curve; cell line not stated here;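 note: intracellular cAMP measured with PDE inhibitor Ro 20-1724 present during compound exposure; potency is the fitted concentration of half-maximal effect; % is set by controls: 0 for no effect and ±100 for the full control effect; nearly all actives have a fitted effect of over 65% in size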
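G418-selected cells were plated in DMEM/10% FBS for 16-24 h at 37C, then treated with compounds plus the PDE inhibitor […] (300 uM solution added) for 30 min at 37C. Intracellular cAMP was measured by HTRF after 30 min lysis at room temperature.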
Numbers without * were called inactive; u = inconclusive; x = no result given; & = joins results of further samples; [ ] = remark or other dose. No enrichment for hits; overall some 5.1% were active at least once.

SMILES | Menin-MLL FL inh | D2 ag | ClpP mod | gsp ag | Sfp inh | PINK1 modulator | gsp antagonist
CC(=O)c1c(C)nc2ccc(Cl)cn12 | 0.1 | -2.2 | -2.3% | u | 18% | -0.9% | 20%
O=C(NCc1ccccc1)c1ccc(=O)[nH]n1 | -1.9 | -2.9 | -2.6% | 19% | 17% | 0.9% | 0%[15.4 µM]
CCc1ccc(NC(=O)Nc2cccc(OC)c2)cc1 | -4.3 | -4.7 | x | -6% | 20% | 1.8% | -1%
O=C(NCC1CCCN1S(=O)(=O)c1cccs1)c1ccccc1F (stereo unspecified) | x | 1.1 | 1.7% | 28% | x | -1.7% | 1%
CCC(=O)N1CCc2cc(S(=O)(=O)CCC(=O)Nc3ccc(F)c(F)c3)ccc21 | 0.5 | 0.8 | 0.1% | -1% | 24% | -0.5% | -2%
CCC(c1nc2ccccc2c(=O)n1CCCn1ccnc1)N1C(=O)c2ccccc2C1=O (stereo unspecified) | -1.5 | -0.9 | 0.0% | -33%[inhibitor] | 9% | 1.6%[38.3 µM] | -6%
CCC(C)NC(=O)CSc1nc(-c2cccs2)cc(C(F)(F)F)n1 (stereo unspecified) | 5.0 | -1.9 | u | u | -1% | x | -2%
COc1cccc(CN2CCNC(=O)C2CC(=O)N(C)CCC2CCOCC2)c1OC (stereo unspecified) | x | -5.9 | 1.8% | -21% | 10% | -3.3% | 0%
CC(C)NC(=O)Nc1ccc2c(c1)C(=O)N([C@H](C)CO)C[C@H](C)[C@@H](CN(C)S(=O)(=O)c1ccc(F)cc1)O2 | x | -1.9 | -2.8% | x | x | 0.7% | 5%
Cc1ccc(S(=O)(=O)c2cc3cc(Br)ccc3oc2=O)cc1 | 5.1 | 0.4 | -1.6% | 15% | 15% | -1.5% | 0%
COc1cc(/C=N/NC(N)=S)ccc1OCc1ccc(C)cc1 | 9.0 | -2.1 | x | 1%[15.4 µM] | 5% | 0.6% | -1%
O=C(c1cc2cc(F)ccc2[nH]1)N1CCN(c2cccc(Cl)c2)CC1 | 2.6 | -18 | 4.4% | u | 10% | 2.2% | -2%
O=C(c1ccccc1)N1N=C(c2ccccc2O)CC1c1ccc(Br)cc1 (stereo unspecified) | 5.3 | 2.3 | -2.9% | -14% | 15% | 5.2% | 0%
CC1=NN(c2ccccc2)C(=O)C1C(=O)C(=O)Nc1ccc(F)cc1 (stereo unspecified) | -2.6 | 2.0 | -2.7% | -56% | -5% | 0.8% | 4%
O=C(c1ccc(OC2CCN(C/C=C/c3ccccc3)CC2)cc1)N1CCCCC1 | x | -2.6 | 1.3% | -18% | 12% | -2.4% | 21%
O=C(NCC1CCCO1)/C(=C\c1ccc(Cl)cc1)NC(=O)c1ccccc1 (stereo unspecified) | -0.7 | 0.0 | -19% | -17% | 18% | 11% | 0%
O=C(Nc1nc(-c2ccccc2)cs1)c1cccc([N+](=O)[O-])c1 | 6.8 | -0.7 | 0.5% | 6% | 0% | 7.0%[38.3 µM] | 50µM*
Cc1ccc(Cn2c(SCCN3CCCCC3)nc3c2c(=O)[nH]c(=O)n3C)cc1 | -2.8 | -5.9 | 1.0% | 5% | 11µM* | -1.1% | 4%
CN(CC(=O)Nc1ccc(Cl)cc1)C(=O)CCc1ccccc1 | -2.2 | -2.5 | x | 0% | 9% | -1.1% | -2%
Cc1cccc(-n2c(N)c(C(=O)N3CCN(C)CC3)sc2=S)c1 | -0.4 | -1.1 | 18µM* | u | 3.5µM* | 1.0% | 4%
CCCCNC(=O)C1(C)CCCCCN1Cc1cccc2c(OC)cc(C(=O)OCC)cc12 (stereo unspecified) | x | -5.3 | u | x | x | 11% | x
CCCC(=O)N1CC2(C)CN(C(=O)CCC)CC(CCC)(C1)C2=O | -7.3 | -5.5 | -0.6% | -47%[inhibitor] | 4% | 1.8% | 1%
CCN(CC)CC(=O)NCC1(c2ccccc2)CCCC1 | -0.2 | -4.6 | x | -4%[15.4 µM] | 18% | -0.1% | -3%
Cc1ccccc1CNC(=O)CN(c1cccc([N+](=O)[O-])c1)S(C)(=O)=O | -1.2 | -1.5 | -0.4% | u | 6% | -0.2% | 8%
CCOC(=O)N1CCc2c(sc(NC(=O)CN3CCN(C)CC3)c2C(=O)Nc2ccccc2)C1 | u | -2.8 | x | 4%[15.4 µM] | -19% | -0.7% | -2%

Carrying on.
SMILES | Menin-MLL FL inh | D2 ag | ClpP mod | gsp ag | Sfp inh | PINK1 modulator | gsp antagonist
Nc1nc2ccccc2cc1S(=O)(=O)c1ccccc1 | -5.2 | 0.6 | x | -11%[15.4 µM] | 8% | 3.9% | 11%
Cc1ccc(CNC(=O)CN(c2ccc(C(C)C)cc2)S(=O)(=O)c2c(C)noc2C)cc1 | x | -0.1 | 2.9% | 0% | 7% | 6.2% | 8%
COc1cc(OC)cc(C(=O)Nc2cc(-c3cn4cccnc4n3)ccc2C)c1 | -3.9 | 1.4 | -22% | 7%[15.4 µM] | 18% | 0.3% | 1%
Cc1cccc(Nc2nn3c(=O)c4ccccc4nc3s2)c1 | -3.4 | -2.1 | u | u | 7% | -0.9% | 34%[activator]
Cn1c2ccccc2c(=O)c2ccc(-c3ccc4c(c3)OCO4)cc21 | 0.0 | 1.8 | 3.7% | x | -9% | 1.4% | u
COc1ccc(Cl)cc1-c1nc(SCC(=O)N(C)CCC#N)n[nH]1 | -4.3 | 3.1 | x | 6% | 12% | 0.2% | -4%
FC(F)Oc1ccccc1NC(=S)NCCc1ccccc1 | x | 2.0 | x | -2%[15.4 µM] | x | 3.3% | 16%
CCOc1ccc(S(=O)(=O)NCCC(=O)N(C)CC(=O)Nc2ccc(OC)cc2)cc1 | x | -0.3 | -1.0% | -53%[inhibitor] | 26% | -0.8% | 7%
CCC(=O)N1CCc2cc(S(=O)(=O)CCC(=O)NCCc3ccc(S(N)(=O)=O)cc3)ccc21 | -5.8 | -1.5 | 0.0% | 25% | 12% | 1.0% | 10%
Nc1nnc(CC(=O)N2CCCCC2)s1 | -0.6 | -1.9 | -5.8% | 9% | 17% | -1.3% | 8%
COC(=O)c1sccc1N/N=C(\C)c1ccc(F)c(Cl)c1 | -1.8 | -0.1 | -7.3% | 17% | 10% | 14% | 7%
CCc1ccc(CN2CCC(Oc3ccc(C(=O)N4CCCC4)cc3)CC2)cc1 | 2.3 | -2.5 | 0.1% | u | -2% | 3.0% | 3%
O=C(NCc1ccc2c(c1)OCO2)c1ccc(Cl)nc1 | 1.5 | 3.7 | x | -2%[15.4 µM] | 7% | 0.4% | x
CCOc1ccc(CCNC(=O)CSc2cc(=O)n(C)c3ccccc23)cc1OCC | -1.2 | -3.2 | -8.7%&-15% | 10%[15.4 µM] | 16% | 1.0%&-0.6% | -9%
COc1cc(OC)c(C(=O)C=Cc2ccc(OC)c(OC)c2)c(OC)c1 | x | -3.0 | x | 7% | x | -2.1% | -9%
CCC1Oc2ccc(C)cc2N(CC(=O)NCCN2C(C)CCCC2C)C1=O (stereo unspecified) | 0.8 | 2.2 | -1.3% | -6% | 5% | -3.4%[38.3 µM] | 4%
CN(C)S(=O)(=O)c1ccc(/C(O)=C2/C(=O)C(=O)N(Cc3cccnc3)C2c2ccncc2)cc1 (stereo unspecified) | 0.1 | 3.4 | -5.3% | 1% | -19% | -2.4% | 7%
CCOc1ccc(N(CC(=O)NC2CCCCC2)C(=O)CNC(=O)c2ccco2)cc1 | x | -2.4 | 0.0% | 9%[15.4 µM] | x | -1.2% | -6%
CCCNc1c(NS(=O)(=O)c2ccc(NC(=O)CC)cc2)c(=O)oc2ccccc12 | x | 1.0 | -1.2% | 9% | 11% | 0.2% | 0%
CCOC(=O)c1[nH]c(C)c(C(=O)NCc2ccccn2)c1C | 1.6 | -2.5 | -0.2% | 2% | 11% | 3.5%[38.3 µM] | -8%
CC(C)n1cc(/C=C(\C#N)S(=O)(=O)c2ccccc2)c2ccccc21 | 10 | -2.5 | -4.1% | -22% | 2% | 1.0% | 1%
O=C(O)CCCC(=O)Nc1ccc(Br)cc1 | 0.1 | -3.8 | 0.5% | -67%[inhibitor] | 20% | 1.2% | 1%
CC/C(=C\C1CCCCC1)C(NP(=O)(c1ccccc1)c1ccccc1)c1ccccc1 (stereo unspecified) | 2.7 | -2.7 | -3.0% | x | -14% | -1.3% | -10%
COc1cccc(C2c3c(oc4ccccc4c3=O)C(=O)N2CCCN2CCOCC2)c1OC (stereo unspecified) | x | -3.0 | x | -3%[15.4 µM] | x | -0.8% | 0%
CCOC(=O)c1oc2cc(O)ccc2c(=O)c1-c1ccc(OC)cc1 | 3.9 | 3.5 | -1.4% | 21% | 7% | -0.3% | u

Remaining list, next part:
SMILES | Menin-MLL FL inh | D2 ag | ClpP mod | gsp ag | Sfp inh | PINK1 modulator | gsp antagonist
O=C(Nc1cccc2c1CCCC2)c1cc([N+](=O)[O-])cc([N+](=O)[O-])c1 | 1.7 | 9.2 | 28µM* | -52%[inhibitor] | -3% | u | 7%
COc1cc(/C=C/c2sc3ccccc3[n+]2CCCS(=O)(=O)[O-])ccc1O | u | -8.6 | x | -7%[15.4 µM] | 6.3µM* | u | u
O=C(N/N=C/c1ccc(Cl)cc1)C(=O)N1CCCCCC1 | 5.8 | 2.5 | x | 7%[15.4 µM] | u | 0.1% | x
Cc1ccc(C)c(NC(=O)c2nnn(Cc3ccccc3)c2N)c1 | 5.4 | 0.5 | 0.4% | 12% | 5% | -0.4% | -3%
O=C(Nc1nc2ccc(S(=O)(=O)N3CCCC3)cc2s1)c1ccccn1 | -7.1 | 2.6 | -5.5% | -28% | -67% | 8.0% | -4%
CCC(NC(=S)NCc1ccc(F)cc1)c1ccc(C)cc1 (stereo unspecified) | 1.6 | -9.6 | 2.0% | -5% | 4% | u | -8%
CC(C)(C)C(=O)N1CCN(c2ccc(NC(=O)c3ccc([N+](=O)[O-])o3)cc2)CC1 | -4.5 | 5.4 | x | 4% | 12% | -0.6% | -6%
CCCn1c(NC(=O)CN2C(=O)NC3(CCCCC3)C2=O)nc2ccccc21 | x | 4.4 | x | 5%[15.4 µM] | x | 5.2% | 3%
